Screening data from PubChem BioAssay.
VDR inh = Inhibitors of the vitamin D receptor (VDR): qHTS | actives 0.93% (n = 400,000) | Potency, µM, inactives show max response, negative = inhibition, hits mostly inhibitors | VDR-SRC2-3 peptide fluorescence polarization, 2 h | Vitamin D3 receptor (Homo sapiens), P11473; active = well fitted inhibition curve with a large enough effect; inconclusive = small, poorly fitted or top-dose-only effect, or another doubt; inactive = no such curve, though single readings can be large or run the other way; also: series mostly up to about 120 µM
Target sequence (P11473 whole entry, looked up): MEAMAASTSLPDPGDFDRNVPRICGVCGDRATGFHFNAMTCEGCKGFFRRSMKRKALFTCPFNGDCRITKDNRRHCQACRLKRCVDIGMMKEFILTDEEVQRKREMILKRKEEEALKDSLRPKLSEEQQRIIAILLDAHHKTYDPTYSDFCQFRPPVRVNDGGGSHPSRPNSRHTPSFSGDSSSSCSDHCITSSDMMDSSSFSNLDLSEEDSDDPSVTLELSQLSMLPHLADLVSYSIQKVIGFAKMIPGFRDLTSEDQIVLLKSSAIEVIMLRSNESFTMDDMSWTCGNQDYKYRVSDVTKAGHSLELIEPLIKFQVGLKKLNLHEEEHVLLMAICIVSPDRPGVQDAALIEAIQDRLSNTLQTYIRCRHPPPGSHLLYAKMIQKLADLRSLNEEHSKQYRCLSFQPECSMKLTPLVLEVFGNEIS
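VDR–SRC2-3 interaction, FP format. Cmpds 23 nl via pintool, brief spin, 2 h ambient incubation.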
* = called active by the depositor; & = joins results of further samples. % is scaled to controls: 0 for no effect and ±100 for the full control effect; potency is read from the fitted curve at half-maximal effect. These rows are one share of the data (hit frequency here may not be typical).

For Cc1nn(-c2nc3ccccc3n2Cc2ccccc2)c2c1C(=O)CC(C)(C)C2 the results were VDR inh 7%.
Screening COc1ccc(OC)c(NC(=O)CCN2CCN(c3ccccc3OC)CC2)c1 returned VDR inh -12%.
Screening CC1CN(C(=O)COC(=O)c2cc([N+](=O)[O-])ccc2Cl)CC(C)O1 (stereo not given) returned VDR inh -19%.
Screening Cc1ccc(NC(=O)C2CCCN(S(=O)(=O)c3ccc4[nH]c(=O)ccc4c3)C2)cc1C (stereo not given) returned VDR inh 6%&4%.
For C/C(=N\Nc1nc2ccccc2[nH]1)c1ccc2c(c1)OCCO2 the results were VDR inh -2%.
`COc1ccc(C(=O)NCC2(c3ccccc3)CCCC2)c(OC)c1` gave VDR inh -15%.
Screening O=C1OC(c2ccccc2)(c2ccc(O)cc2)c2ccccc21 (stereo not given) returned VDR inh 15%.
Screening COc1ccc(CCC(=O)NNC(=O)c2ccccn2)cc1OC returned VDR inh -12%.
For CC1=C(C(=O)OCc2ccccc2)C(c2ccccc2[N+](=O)[O-])NC(=O)N1C (stereo not given) the results were VDR inh -20%.
`CC(C)Oc1ccc(CNC(=S)N/N=C/c2cccnc2)cc1` gave VDR inh 7%.
Screening COc1ccccc1CN1CC(C(=O)N2CCN(c3ccc(F)cc3)CC2)CC1=O (stereo not given) returned VDR inh 5%.
`O=C([C@H](Cc1ccccc1)NS(=O)(=O)c1ccc(Cl)cc1)N1CC[C@@]2(O)CCCC[C@H]2C1` gave VDR inh 8%.
For Cc1cc(C)c(C(=O)NC2CCCc3c2cnn3-c2ccc(C)c(C)c2)c(=O)[nH]1 (stereo not given) the results were VDR inh -18%.
Cc1ccccc1NS(=O)(=O)c1cc(C(N)=O)ccc1C was read as VDR inh -9%.
`COc1ccc(CNCc2c(O)c(Cl)cc3c(C)c(C)c(=O)oc23)c(OC)c1` gave VDR inh -15%.
`O=C(NCc1ccc2c(c1)OCO2)c1ccc(Cl)c(S(=O)(=O)NCc2ccccc2)c1` gave VDR inh 16%.
`CC(C)Cn1cc(C(=O)NCCCN2CCCC2=O)c2c3ccccc3n(C)c2c1=O` gave VDR inh -7%.
`Cn1c(SC2CCCCC2=O)nnc1-c1ccncc1` (stereo not given) gave VDR inh -9%.
`COCCNC(=S)N1CCN(c2ccc(Cl)cc2)CC1` gave VDR inh -22%.
`Cc1ccc(SC(C)c2nc(-c3cccnc3)no2)cc1` (stereo not given) gave VDR inh -1%.
`CCCCn1c(=N)n(CC(O)COc2ccc(C)cc2)c2ccccc21` (stereo not given) gave VDR inh 2%.
Screening C=CCOc1ccc(CNCC2CCCO2)cc1 (stereo not given) returned VDR inh -6%.
Screening CC(/C=N/NC(=O)Cn1cnc2c1c(=O)n(C)c(=O)n2C)=C\c1ccccc1 returned VDR inh -11%.
O=S(=O)(c1ccc(Br)cc1)c1nnn2c1nc(NCc1cccs1)c1sccc12 was read as VDR inh 10%.
For COc1ccc(C2=NOC(C(=O)Nc3ccc4c(c3)OCO4)C2)cc1OC (stereo not given) the results were VDR inh -10%.
Screening Cc1ccc(CSc2nnc(-c3ccncc3)n2N)cc1 returned VDR inh 4%.
`Cc1ccc(C(=O)Oc2ccccc2N2C(=O)C3C4CCC(C4)C3C2=O)cc1` (stereo not given) gave VDR inh -4%.
For Cn1c(=O)c2c(nc(N3CCCCCC3)n2CC(=O)c2ccccc2)n(C)c1=O the results were VDR inh -11%.
For Cc1ccc(C(=O)NCC(=O)OC(C)C(=O)NC2CCCc3ccccc32)cc1 (stereo not given) the results were VDR inh -8%.
`CCC(C)(C(=O)Nc1ccc(OC)cc1)N(C)C(=O)Cn1nnnc1N` (stereo not given) gave VDR inh -3%.
Cn1c(Cn2c(=O)sc3ccccc32)nnc1SCC(=O)NCc1ccccc1Cl was read as VDR inh -13%.
Screening Cc1cccc(NC(=O)CN2C(=O)CCSc3ccc(S(=O)(=O)N4CCOCC4)cc32)c1C returned VDR inh -22%.
For COc1cccc(C(=O)N2CCN=C2SCc2cccnc2)c1OC the results were VDR inh -18%.
O=C(CNC(=O)c1ccco1)N/N=C/c1cc(Br)ccc1O was read as VDR inh 5%.
For Cc1ccc(-c2nnn(CC(=O)NC3CC4CCC3C4)n2)cc1 (stereo not given) the results were VDR inh -2%.
For CC(=O)N1N=C(c2cccs2)CC1c1ccc(C)o1 (stereo not given) the results were VDR inh 11%.
`CC[C@H](C)Cc1cn([C@@H](CCCCN)C(=O)NCCCCCCCCCCC(=O)N2CCNCC2)nn1` gave VDR inh -14%.
Screening Cc1cc(/C=C2\SC(=S)NC2=O)c(C)n1-c1ccccc1 returned VDR inh 7%.
For CNC(=O)/C=C/c1cccc(C(F)(F)F)c1 the results were VDR inh -3%.
CCCCC[C@H](O)/C=C/C=C\C/C=C\CCCCC(=O)O was read as VDR inh 12%.
Screening Cn1nnc(NC(=S)NC(=O)/C=C/c2ccco2)n1 returned VDR inh 15%.
For CCOC(=O)c1c(S(=O)(=O)N2CCN(c3ccc(C(C)=O)cc3)CC2)c(C)n(C)c1C the results were VDR inh -1%.
Cc1ccc(C(=O)COC(=O)c2nc3nccc(C)n3n2)c(C)c1 was read as VDR inh -2%.
For O=C(c1cc(-c2ccccc2)nn1-c1ccccc1)N1CCN(S(=O)(=O)c2cccc(F)c2)CC1 the results were VDR inh 11%.
Screening CCOC(=O)C1=C(C)NC(SCC(=O)Nc2cc(C)on2)=C(C#N)C1c1cccs1 (stereo not given) returned VDR inh 2%.
`Cc1ccc(N(CC(=O)Nc2cccc(Cl)c2C)S(C)(=O)=O)cc1` gave VDR inh -28%.
Screening CC(C)C(=O)NC(Nc1cc(C(F)(F)F)ccc1Cl)C(Cl)(Cl)Cl (stereo not given) returned VDR inh -26%.
`CC(C)(C)C(=O)NC(=S)NCCc1ccccc1` gave VDR inh -14%.

Seven entries out of the list, sorted by count of non-hydrogen atoms, lowest first.
`Cn1c(SC2CCCCC2=O)nnc1-c1ccncc1` (stereo not given) gave VDR inh -9%.
Cc1ccccc1NS(=O)(=O)c1cc(C(N)=O)ccc1C was read as VDR inh -9%.
Screening CC(C)C(=O)NC(Nc1cc(C(F)(F)F)ccc1Cl)C(Cl)(Cl)Cl (stereo not given) returned VDR inh -26%.
Screening CC1CN(C(=O)COC(=O)c2cc([N+](=O)[O-])ccc2Cl)CC(C)O1 (stereo not given) returned VDR inh -19%.
For COc1cccc(C(=O)N2CCN=C2SCc2cccnc2)c1OC the results were VDR inh -18%.
Screening CCOC(=O)C1=C(C)NC(SCC(=O)Nc2cc(C)on2)=C(C#N)C1c1cccs1 (stereo not given) returned VDR inh 2%.
Screening Cc1ccc(NC(=O)C2CCCN(S(=O)(=O)c3ccc4[nH]c(=O)ccc4c3)C2)cc1C (stereo not given) returned VDR inh 6%&4%.

Reprinted at random: three compounds from above.
For C/C(=N\Nc1nc2ccccc2[nH]1)c1ccc2c(c1)OCCO2 the results were VDR inh -2%.
For Cc1ccc(C(=O)NCC(=O)OC(C)C(=O)NC2CCCc3ccccc32)cc1 (stereo not given) the results were VDR inh -8%.
`CCC(C)(C(=O)Nc1ccc(OC)cc1)N(C)C(=O)Cn1nnnc1N` (stereo not given) gave VDR inh -3%.

The listing continues.
Screening Cc1ccccc1Nc1c(-c2c[nH]c3ccccc23)nc2ccccn12 returned VDR inh 10%.
`O=C1Nc2ccccc2C1=Nc1ccc(F)cc1` gave VDR inh inconclusive.
For O=C(NCCCN1CCOCC1)c1ccc2c(=O)n(CCc3ccccc3)c(=O)[nH]c2c1 the results were VDR inh -7%.
Screening COc1ccc(-n2c(SCC(=O)NCC3CCCO3)nc3n[nH]c(C)c3c2=N)cc1 (stereo not given) returned VDR inh 12%.
For Cc1cccc(CNC(=O)c2ccc3c(c2)N(C)CCS3)c1 the results were VDR inh inconclusive.
Cc1cnc(C(=O)Nc2ccc3c(c2)CCC3)cn1 was read as VDR inh 12%.
COc1ccc(OC(C)C(=O)NC2CC(C)(C)NC(C)(C)C2)cc1 (stereo not given) was read as VDR inh -1%.
For COC(=O)c1ccc(-c2ccco2)n1Cc1cc(C)ccc1C the results were VDR inh 15%.
CC1Cc2ccccc2N1S(=O)(=O)c1cccc(C(=O)NCCCn2ccnc2)c1 (stereo not given) was read as VDR inh 16%.
For COc1ccc(CCn2nnnc2C2(c3ccc(C)cc3)CC2)cc1 the results were VDR inh -26%.
For Cc1cccc(NC(=S)N2CCN(C(=O)c3ccco3)CC2)c1 the results were VDR inh 4%.
Screening CC(Sc1nnc(NC2CC2)s1)C(=O)Nc1ccc(N2CCOCC2)cc1 (stereo not given) returned VDR inh 8%.

Gathered by group, the entries above with bromine (2)
O=S(=O)(c1ccc(Br)cc1)c1nnn2c1nc(NCc1cccs1)c1sccc12 was read as VDR inh 10%.
O=C(CNC(=O)c1ccco1)N/N=C/c1cc(Br)ccc1O was read as VDR inh 5%.

Going on with the list:
For CCOC(=O)C1CCCN(S(=O)(=O)c2cc3c4c(c2)CCC(=O)N4CCC3)C1 (stereo not given) the results were VDR inh -4%.
Screening CCCCc1ccc(NC(=S)Nc2ccc(Nc3ccc(OC)cc3)cc2)cc1 returned VDR inh -28%.
`CCn1cc(NC(=O)Nc2ccccc2C(=O)OC)c(C(N)=O)n1` gave VDR inh 22%.
CCn1c(C)c(C(C)=O)c(N2CCN(c3ccc(OC)cc3)CC2)nc1=S was read as VDR inh 3%.
`O=C(NCc1ccccc1)C1CCCN1S(=O)(=O)c1ccc(Cl)cc1` (stereo not given) gave VDR inh -15%.
NC(=O)c1sc2nc(-c3ccccc3)c3c(c2c1N)CCCC3 was read as VDR inh -24%.
For O=C(COc1ccccc1)NC(Cc1c[nH]c2ccccc12)C(=O)O (stereo not given) the results were VDR inh -9%.
For Cc1[nH]nc2c1C(c1ccccc1F)CC(=O)N2 (stereo not given) the results were VDR inh 2%.
COc1ccc(C2CC(c3cccs3)=NN2C(=O)CCC(=O)O)cc1OC (stereo not given) was read as VDR inh -6%.
`O=C(NC1=NCCS1)c1ccc(Cl)c(Cl)c1` gave VDR inh 10%.
`C[C@H](CO)N1C[C@H](C)[C@@H](CN(C)Cc2ccc(-c3ccccc3)cc2)Oc2c(NS(=O)(=O)c3cccs3)cccc2C1=O` gave VDR inh -24%.
COc1cc(C)c(Br)cc1S(=O)(=O)N1CCCC1 was read as VDR inh -1%.
`O=C(CCC1CCCN(C(=O)C2(c3ccccc3)CC2)C1)N1CCN(c2ccccn2)CC1` (stereo not given) gave VDR inh 0%.
Cc1cc(Cl)c2oc(C(=O)N(C)Cc3ccon3)c(C)c2c1 was read as VDR inh 8%.
Screening O=C(CSCc1cnn(-c2ccccc2)c1-n1cccc1)NCc1ccc(Cl)cc1 returned VDR inh 8%.
COc1ccc(S(=O)(=O)N2CCC(NC(=O)Nc3ccc(C)cc3)CC2)cc1 was read as VDR inh -12%.
CN1CCN(c2ccc(S(=O)(=O)N3CCOCC3)cc2NC(=O)CC(C)(C)C)CC1 was read as VDR inh 13%.
Screening CSc1ncccc1C(=O)Nc1ccc2c(c1)OCO2 returned VDR inh -16%.
For Cc1cc(Br)c(S(=O)(=O)n2nnc3ccccc32)cc1C the results were VDR inh -6%.
For COc1cccc(-c2cc(C(=O)NCc3cccs3)no2)c1 the results were VDR inh 1%.
COc1cc(C(=O)OCC(=O)Nc2cc(C)on2)c([N+](=O)[O-])cc1OC was read as VDR inh 9%.
Cc1nc2ccc3nc(NC(=O)c4ccc(S(=O)(=O)N5CCOCC5)cc4)sc3c2s1 was read as VDR inh -13%.
Screening CCOc1ccc(NC(=O)CN2CCCN(Cc3cc(C)ccc3C)S2(=O)=O)cc1 returned VDR inh 2%.
COc1ccc(CSc2nc(C)cc(=O)[nH]2)cc1 was read as VDR inh 12%.

Next section, starting with the last 2 of the part before.
Screening CCOc1ccc(NC(=O)CN2CCCN(Cc3cc(C)ccc3C)S2(=O)=O)cc1 returned VDR inh 2%.
COc1ccc(CSc2nc(C)cc(=O)[nH]2)cc1 was read as VDR inh 12%.
For O=C(Cn1ncc2c(=O)oc3ccccc3c21)NCC1COc2ccccc2O1 (stereo not given) the results were VDR inh -11%.
Screening O=C(OCC(=O)N1CCc2ccccc21)c1ccncc1 returned VDR inh -3%.
Nc1c(-c2ccccc2)cnn1C1CCS(=O)(=O)C1 (stereo not given) was read as VDR inh 18%.
Screening COc1ccc(NC(=O)C(c2ccc(OC)cc2)N(C)C(=O)CC2NC(=O)NC2=O)cc1 (stereo not given) returned VDR inh -2%.
Screening O=C1c2ccccc2C(=O)N1CCc1nc(-c2ccc(Cl)cc2)no1 returned VDR inh 18%.
`Cc1ccc([N+](=O)[O-])c(OCC(O)CNC(C)(C)C)c1` (stereo not given) gave VDR inh -23%.
For CN(C(=O)CSc1ncccc1C(=O)O)c1ccccc1 the results were VDR inh -2%.
For Cc1cc(S(=O)(=O)N2CCN(c3ccc(F)cc3)CC2)ccc1-n1cnnn1 the results were VDR inh 0%.
Screening COC(=O)c1cc(C(=O)OC)cc(S(=O)(=O)Nc2ccc(Cl)c(N)c2)c1 returned VDR inh 1%.
For Cn1c(=O)c2c(nc(SCCN3CCOCC3)n2C)n(C)c1=O the results were VDR inh -11%.
COc1ccccc1C(=O)N/N=C(\C)CC(=O)Nc1ccccc1NC(C)=O was read as VDR inh -23%.
Screening COc1ccc(-c2nc(CN3CCN(C(=O)c4ccco4)CC3)c(C)o2)c(F)c1 returned VDR inh -21%.
Screening COC(=O)c1ccccc1NC(=O)c1cccc(NC(=O)C(C)C)c1 returned VDR inh -9%.
`Cc1cccc(-c2noc(CN(C(=O)c3ccccc3Cl)C(C)C)n2)c1` gave VDR inh 1%.
`CCn1c2ccccc2c2nnc(SCCN3CCCCC3)nc21` gave VDR inh -23%&4%.
For Fc1cccc(Cl)c1CSc1ccc2nnc(-c3ccccn3)n2n1 the results were VDR inh 5%.
